# Screening results (PubChem BioAssay)
# D2 agonist – Beta-Arrestin HTS for Positive Allosteric Modulators of the Human D2 Dopamine Receptor: Agonists. D(2) dopamine receptor (Homo sapiens), P14416. DiscoveRx PathHunter D2 beta-arrestin, luminescence, 90 min; 100% = 57 uM dopamine signal. activation, % (test concentration not listed). 360,000 compounds, 0.084% hits. AID 624465, 2012; in the data active = activation above about 40%; inconclusive = about 15% to 40%; inactive = below about 15%; further: compound concentration not given in the record; the text of the record calls up to 30% inactive
# Target sequence (P14416 whole entry, looked up): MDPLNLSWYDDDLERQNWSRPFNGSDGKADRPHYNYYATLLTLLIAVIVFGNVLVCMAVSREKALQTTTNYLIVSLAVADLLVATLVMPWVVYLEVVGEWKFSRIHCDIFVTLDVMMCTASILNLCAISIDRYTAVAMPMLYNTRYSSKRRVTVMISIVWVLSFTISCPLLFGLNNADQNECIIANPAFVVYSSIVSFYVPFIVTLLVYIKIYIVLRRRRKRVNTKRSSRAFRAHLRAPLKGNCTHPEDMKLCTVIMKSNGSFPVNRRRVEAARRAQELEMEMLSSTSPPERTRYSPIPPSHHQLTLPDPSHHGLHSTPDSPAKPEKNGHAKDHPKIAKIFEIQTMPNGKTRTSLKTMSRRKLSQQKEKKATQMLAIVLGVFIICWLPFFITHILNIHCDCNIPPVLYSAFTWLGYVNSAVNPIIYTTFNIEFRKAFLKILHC
#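 DiscoveRx PathHunter D2 beta-arrestin cells (2,100/well) attached overnight, then compound-stimulated 90 min at 37 C in HBSS/10 mM HEPES/0.1% Tween-20 buffer; beta-galactosidase complementation read by luminescence after 1 h at ambient temperature. Dopamine 57 uM final (EC100) as control.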
# TRPML1 ag – qHTS for Agonists of the Human Mucolipin Transient Receptor Potential 1 (TRPML1) | 410,000 compounds, 0.12% hits | AID 624414, 2012 | Mucolipin-1 (Homo sapiens), Q9GZU1 | activation, % (concentration not given with the values) | TRPML1-expressing cells, Ca2+ dye fluorescence, FDSS; host cell line not named in the record; reference of the full effect not given here; in the data active = activation above about 50%; inconclusive = about 30% to 50%; inactive = below about 30%; further: 0% is about no effect; the text of the record puts the active cut at 80%
# Target sequence (Q9GZU1 whole entry, looked up): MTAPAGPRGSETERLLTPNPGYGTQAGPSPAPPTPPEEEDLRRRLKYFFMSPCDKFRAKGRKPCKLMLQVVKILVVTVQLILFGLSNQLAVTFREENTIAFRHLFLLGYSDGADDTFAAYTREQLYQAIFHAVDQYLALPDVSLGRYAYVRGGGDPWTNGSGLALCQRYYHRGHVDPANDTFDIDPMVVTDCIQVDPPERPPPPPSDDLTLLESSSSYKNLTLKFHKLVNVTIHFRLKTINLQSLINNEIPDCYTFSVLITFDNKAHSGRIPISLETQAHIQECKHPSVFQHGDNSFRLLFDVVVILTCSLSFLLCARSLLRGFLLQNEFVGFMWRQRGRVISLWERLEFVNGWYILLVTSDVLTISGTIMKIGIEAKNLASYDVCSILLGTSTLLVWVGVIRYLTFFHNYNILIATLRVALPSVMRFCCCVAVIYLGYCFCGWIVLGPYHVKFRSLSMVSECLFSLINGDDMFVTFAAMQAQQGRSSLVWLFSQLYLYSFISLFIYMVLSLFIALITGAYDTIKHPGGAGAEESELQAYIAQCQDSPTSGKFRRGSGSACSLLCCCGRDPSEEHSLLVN
#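 Cells: TRPML1-DL, 1X Tet inducer, ~16 h at 37 degrees C/5% CO2. Dye: ABD Ca8 no-wash + quencher, 45-90 min RT. Read: 10 s baseline, compound add, 110 s agonist phase; 54-4 EC80 (4uM final), 110 s antagonist phase.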
# D2 potentiator – Beta-Arrestin HTS for Positive Allosteric Modulators of the Human D2 Dopamine Receptor: Potentiators; potentiation, % (test concentration not listed); AID 624464, 2012; D(2) dopamine receptor (Homo sapiens), P14416; DiscoveRx D2 beta-arrestin cells, luminescence, 90 min; 100% = 57 uM dopamine signal; 360,000 compounds, 0.23% hits; active = potentiation of 50% or more; inconclusive = 30% to 50%; inactive = 30% or less;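 further: compound concentration not given in the record; tested on top of an EC20 dose of dopamine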
#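 D2 cells co-treated with compound plus 50 nM dopamine (EC20) for 90 min at 37 deg C to detect potentiation. Beta-arrestin recruitment was read as enzyme-fragment luminescence after 1 h at ambient temperature. Full response was set by 57 uM dopamine.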
# TRPML1 blocker – qHTS for Inhibitors of the Human Mucolipin Transient Receptor Potential 1 (TRPML1). Mucolipin-1 (Homo sapiens), Q9GZU1. TRPML1-inducible cells, Ca2+ dye fluorescence, FDSS; active compounds read low; inhibition of EC80 agonist-evoked calcium signal. activity change, negative = inhibition, % (test concentration not listed). 390,000 compounds, 0.02% hits. AID 624415, 2012; in the data active means activity change below about -50%; inconclusive means about -30% to -50%; inactive means above about -30%;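 further: stimulus is agonist 54-4 at its EC80 concentration; on the % scale 0 is the no-effect control and ±100 the full control effect; compound concentration not given in the record; the text of the record puts the active cut at -80%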
#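 Calcium fluorescence in TRPML1-DL cells induced overnight with Tet: a 110 s read after compound pin addition, then a 110 s antagonist read after challenge with 54-4 at 4 uM final (EC80).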
# PINK1 expr mod – A Quantitative High throughput Screen to Identify Chemical Modulators of PINK1 Expression | PINK1 immunofluorescence, high-content cytometry, 24 h | Potency, µM (highest dose often 76.6 µM), for the others: at the top dose activation (PINK1 increase), usual class: activators | 410,000 compounds, 0.2% hits; active = well fitted activation curve with a large enough effect; inconclusive = small, poorly fitted or top-dose-only effect; inactive = flat fitted curve, though single readings scatter; cell line not stated here;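 further: potency means the concentration at half of the fitted maximal effect; % of control where 0% means no effect; nearly all actives have a fitted effect of over 65% in size; a mitochondrial uncoupler was the plate control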
#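 A stable cell line was treated with compounds at 5 concentrations for 24 hours, with CCCP as control. PINK1 levels and mitochondrial localization were measured by immunofluorescence with mitochondrial, cell and nuclear markers after fixation, read by laser-scanning cytometry.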
# Six1-Eya2 blk – qHTS Assay for Inhibitors of the Six1/Eya2 Interaction | AlphaScreen GST-Six1/His-Eya2 binding, biochemical; active compounds read low; control for the full effect not named in the record | activity change, % (test concentration not listed) | Homeobox protein SIX1 (Homo sapiens) + Protein phosphatase EYA2 (Homo sapiens), … | 360,000 compounds, 0.56% hits; in the data active = activity change below about -65%; inconclusive = about -30% to -65%; inactive = above about -30%; further: on the % scale 0 is the no-effect control and ±100 the full control effect
#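 Compounds are tested against tagged Six1 and Eya2 proteins bridged by glutathione donor and nickel acceptor beads; after a one-hour incubation at 37 °C without light, AlphaScreen emission is recorded.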
# Numbers without * were called inactive; ? = inconclusive; . = not tested or not shown; & = joins results of further samples; [ ] = another dose, or the depositor's remark. This is a random part of the collection; any-hit rate near 1%.
# Below each compound: Six1-Eya2 blk	D2 potentiator	D2 agonist	TRPML1 ag	PINK1 expr mod	TRPML1 blocker
1) CSc1oc(-c2ccc(F)cc2)nc1S(=O)(=O)c1ccc(F)cc1
  0	-1	-2.6	0.3	5.8%	-15
2) Cc1cccc(-c2nc(C)cc(=O)[nH]2)c1
  6	-7	-8.3	1.3	2.6%	-4
3) CCN(CC)CC(=O)Nc1ccc([N+](=O)[O-])cc1
  0	-6	-1.8	1.2	-0.3%	28
4) COc1ccccc1N1CCN(C(=O)CCCN2C(=O)c3cccc4cccc(c34)C2=O)CC1
  ?	-1	0.0	0.4	-1.5%	-8
5) NC(=Nc1ccc(Cl)cc1)c1ccccc1
  1	1	0.0	65*	-0.6%	-5
6) O=S(=O)(C(=CNc1ccccc1)S(=O)(=O)c1ccccc1)c1ccccc1
  4	-8	0.6	2.7	-0.2%	67
7) COCCSc1ccccc1C(=O)NCC1CCCO1 (stereo not given)
  0	-9	-1.2	0.7	0.2%[38.3 µM]	-5
8) CCOc1ccc(N2C(=O)CC(/C=C3/N(C)c4ccccc4C3(C)C)C2=O)cc1 (stereo not given)
  -15	-10	-5.6	-0.2	5.0%	-12
9) O=C(Nc1ccc2c(c1)OCCO2)C(C1CC1)N1CCN(c2ccc(C(F)(F)F)cn2)CC1 (stereo not given)
  -19	-4	-2.7	-0.2	-0.3%	.
10) CN1C(=O)N(CC(=O)Nc2ccc(C(F)(F)F)cc2)C(=O)C12CCCCC2
  -6	7	-4.5	0.0	2.1%	23
11) CC(C)(C)OC(=O)N1CCC(c2c(C(=O)NCCc3ccccc3)cnn2-c2ccc(F)cc2F)CC1
  .	.	.	1.6	0.1%	-30
12) COC(=O)C1CCN(C(=O)COC(=O)Cn2cnnn2)CC1
  8	-3	-1.4	-0.3	-0.6%	12
13) CC(=NO)C1CCC2C3CCC4=CC(=NO)CCC4(C)C3C(O)CC12C (stereo not given)
  7	-36	-6.4	1.0	-4.0%	4
14) C[C@H]1CN([C@@H](C)CO)C(=O)CCCn2nncc2CO[C@H]1CN(C)S(=O)(=O)c1ccc(C#N)cc1
  -3	3	-3.7	0.2	2.0%	5
15) CCC(=O)N(c1nnc(SCC(=O)Nc2ccccc2Cl)s1)C1CC1
  1	3	-1.0	1.1	-0.7%	-3
16) CC(C)N(Cc1nc(-c2ccccc2)no1)C(=O)c1ccc(Br)o1
  -28	-11	-3.3	7.1	1.5%	9
17) COc1ccc(-c2cc(C(F)(F)F)n3nc(C(=O)NCCN4CCOCC4)cc3n2)cc1
  -15	-3	3.7	-1.1	1.6%	0
18) CC1CCCC(C)N1C(=O)COC(=O)CCC(=O)c1cccs1 (stereo not given)
  5	-3	-0.4	-0.1	-0.6%	2
19) O=C(C1=C[C@@H](c2ccc(Br)cc2)C[C@@H](OCc2ccc(CO)cc2)O1)N1CCOCC1
  3	-7	?	0.6	0.6%	20
20) Cn1cc(Cl)c(C(=O)NNC(=S)NCc2ccco2)n1
  -9	-9	2.8	0.2	-2.7%	1
21) CC1(C)Cc2c(C#N)c(N3CCN(C(=O)c4ccccc4)CC3)nc(-c3ccco3)c2CS1
  -2	-10	-1.6	2.5	0.0%	20
22) Brc1ccccc1OCCCN1CCCC1
  -6	-23	-5.8	0.1	-0.8%	-5
23) O=C(CNC(=O)c1ccco1)NCCCc1ccccc1
  -1	-23	-2.6	0.2	1.9%	-7
24) COc1ccc(-c2cc3nc(C)c(CCC(=O)NCc4ccccc4Cl)c(C)n3n2)c(OC)c1
  .	.	.	0.5	2.5%	4
25) O=C(O)c1ccccc1C(=O)NCC(O)COc1ccc(Cl)cc1 (stereo not given)
  5	-9	-2.8	2.3	1.5%	49
26) NNc1ncnc2c1cnn2-c1ccccc1
  -24	-7	-4.2	0.5	1.8%	8
27) C=CS(=O)c1sc(Cl)c(N2CCOCC2)c1[N+](=O)[O-] (stereo not given)
  -6	-28	-11	6.9	-1.5%	20
28) CCOC(=O)c1cnc2c(C)cc(C)cc2c1Nc1ccc(S(=O)(=O)Nc2ncccn2)cc1
  -1	15	-1.8	-0.7	-1.4%	-2
29) CC(C)c1nc2sc3c(SCC(N)=O)ncnc3c2c2c1CCC2
  ?	-12	-1.5	-0.3	8.0%	3
30) COc1ccc(S(=O)(=O)N2CCN(C(=O)c3cc4c(s3)CCCC4)CC2)cc1
  4	-10	-3.2	1.0	0.4%	2
31) COc1cc(C)c(Cl)cc1S(=O)(=O)N(C)C
  7	-6	-2.2	1.2	0.3%	9
32) CC1(C)CC(=O)C(C(=O)C2CCN(S(=O)(=O)c3ccccc3)CC2)C(=O)C1
  4	4	3.4	1.2	0.5%	-7
33) Cc1ccccc1OCCn1cc(C(=S)N2CCN(C)CC2)c2ccccc21
  ?	-8	-3.6	0.6	?	11
34) COc1ccc(-c2nn(C)c(=O)c3ccccc23)cc1NC(=O)COc1ccccc1
  -6	-5	-2.8	5.2	14%	36
35) CCOc1cccc(C2c3[nH]c4ccccc4c3CCN2C(=O)CCC2CCCC2)c1 (stereo not given)
  .	.	.	-0.2	-0.1%	22
36) CC(=O)c1cc2cccc(OC3(C)CCN(Cc4ccc5ccccc5c4)C3)c2o1 (stereo not given)
  -21	-9	14	-0.4	?	.
37) O=C(NC1CC(=O)N(c2ccc(F)cc2)C1)C1CC1 (stereo not given)
  .	.	.	-0.3	0.5%	-9
38) CC(C)CN(CC(C)C)C(=O)Nc1ccc(F)cc1F
  0	-1	-5.0	-0.1	-0.3%	-7
39) O=C(NC1CCN(Cc2ccccc2)CC1)c1ccccc1
  2	-23	-4.1	0.4	0.1%	41
40) CCCCC[C@@H](C)N1C[C@@H](COCc2ccccc2)Oc2cc(N3CC[C@@H](O)C3)ccc2S1(=O)=O
  -19	.	.	-0.1	13%	.
41) COc1ccc2c(c1)c1ncn(Cc3ccccn3)c(=O)c1n2C
  ?	-25	1.0	-0.8	1.8%	-21
42) O=[N+]([O-])c1ccc(CN2CCN(c3ccc([N+](=O)[O-])cc3)CC2)cc1
  -17	-12	1.5	-0.7	0.1%	7
43) N#C/C(=C(/O)COc1ccc(Br)cc1)c1nnc2n1CCCCC2
  4	-7	-4.6	0.3	-0.9%	-6
44) Cc1cc(C)nc(NS(=O)(=O)c2ccc(NC(=O)Cc3ccc(F)cc3)cc2)n1
  0	-12	-2.3	0.4	0.0%	18
45) Cc1cccc(-c2nnnn2-c2cccc(C)c2)c1
  13	-4	2.1	-0.3	-0.8%	13
46) Cc1ncc(C(O)c2ccccc2)n1Cc1ccccc1 (stereo not given)
  -7	-9	-5.6	-0.4	0.3%	-8
47) CCc1c(C)sc(NC(=O)OC)c1C(N)=O
  -3	10	1.4	-0.2	-0.9%[38.3 µM]	-18
48) CCCOc1ccc(C(=O)NC(=S)Nc2nc3ccccc3s2)cc1
  0	-1	-1.2	-0.5	-3.6%[38.3 µM]	0
49) CCc1ccc(-n2c(=O)c3cccnc3n2CC(=O)Nc2ccccc2C(F)(F)F)cc1
  .	.	.	1.6	4.6%	28
50) FC(F)(F)c1ccc(Nc2nnnc3ccccc23)cc1
  5	-2	-2.2	0.0	5.1%	-6
51) CCN(CC)CCNC(=O)C1CCCN(c2ncnc3onc(C)c23)C1 (stereo not given)
  .	.	.	0.3	2.0%	17
52) CCN(CC)C(=O)CSc1ncnc2sccc12
  0	1	-0.9	-0.4	1.2%	-1
53) O=P1(NC2CCCC2)OCC2(CO1)COP(=O)(NC1CCCC1)OC2 (stereo not given)
  6	-8	1.9	-0.1	-2.3%	7
54) COc1cc(C(=O)Nc2ccc(C)cc2)c2ccccc2n1
  0	-1	1.5	1.5	11%	15
55) CC(C)CCNC(=O)C(C)N(Cc1ccc(F)cc1)C(=O)c1ccc(CN2CCCCC2)o1 (stereo not given)
  -1	-10	-3.3	0.3	13%[38.3 µM]	-20
56) Cc1ccc(C(=O)c2cc([N+](=O)[O-])ccc2N2CCCCC2)c(C)c1
  -9	-36	-7.4	-0.2	1.2%	40
57) COc1ccccc1C(c1nnnn1Cc1ccccc1)N1CCC(C(N)=O)CC1 (stereo not given)
  9	-5	-0.3	0.0	-3.6%	-2
58) CCN(Cc1cc(=O)n2ccsc2n1)Cc1nc2ccccc2c(=O)[nH]1
  -26	-2	-4.7	-0.2	-2.9%	-4
59) C[C@H](CO)N1C[C@H](C)[C@H](CN(C)C(=O)Nc2cccc3ccccc23)Oc2c(NC(=O)c3ccc(-c4nccs4)cc3)cccc2C1=O
  -20	9	3.6	1.2	2.4%	-13
60) COc1cc2c(=O)n(CCC(=O)NCC3CCCO3)c(=O)n(CC(=O)Nc3ccccc3C)c2cc1OC (stereo not given)
  -4	4	-0.1	-1.1&-0.5	-1.4%&0.0%	-5&-4

# Results in Six1-Eya2 blk and D2 agonist, for 2 of the compounds above:
entry	structure	Six1-Eya2 blk	D2 agonist
16	CC(C)N(Cc1nc(-c2ccccc2)no1)C(=O)c1ccc(Br)o1	-28	-3.3
17	COc1ccc(-c2cc(C(F)(F)F)n3nc(C(=O)NCCN4CCOCC4)cc3n2)cc1	-15	3.7

# (cont.)
# Below each compound: Six1-Eya2 blk	D2 potentiator	D2 agonist	TRPML1 ag	PINK1 expr mod	TRPML1 blocker
61) COc1cc(OC)c(NS(=O)(=O)c2cc(C(=O)OCC(=O)NCC3CCCO3)ccc2OC)cc1Cl (stereo not given)
  -11	-15	3.6	0.6	-0.8%	-8
62) CS(=O)(=O)N1CCN(C(=O)COc2ccccc2)CC1
  -1	7	11	0.5	1.2%	7
63) Cc1ccccc1NC(=O)CCN1CCN(C/C=C/c2ccccc2)CC1
  -1	9	10	-0.8	-1.4%	-9
64) CCOC(=O)C1(C)NC(c2ccc(N(C)C)cc2)C2C(=O)N(c3ccc(OC)cc3)C(=O)C21 (stereo not given)
  2	-3	-3.2	-0.9	1.0%	1
65) COC(=O)c1cc(Br)c(=O)n(CCc2ccc(O)cc2)c1
  -1	-6	0.0	0.6	-1.2%	-4
66) COc1ccccc1NC(=O)C1=C(C)Nc2nc(SCC(=O)c3ccc(C)cc3)nn2C1c1ccc(F)cc1 (stereo not given)
  .	.	.	1.1	1.6%	9
67) CCOC(=O)c1ccc(Oc2nc(OC)cc(OC)n2)cc1
  17	1	-2.7	-1.5	2.3%	-11

# One compound at a time (already shown). Order of values: Six1-Eya2 blk	D2 potentiator	D2 agonist	TRPML1 ag	PINK1 expr mod	TRPML1 blocker
# Shown for CCOC(=O)C1(C)NC(c2ccc(N(C)C)cc2)C2C(=O)N(c3ccc(OC)cc3)C(=O)C21 (stereo not given) : 2	-3	-3.2	-0.9	1.0%	1
# Shown for CS(=O)(=O)N1CCN(C(=O)COc2ccccc2)CC1 : -1	7	11	0.5	1.2%	7
